CBX7 inh = CBX7 chromodomain binding inhibitors, primary screen, biochemical, AlphaScreen | Chromobox protein homolog 7 (Homo sapiens), O95931 | AlphaScreen His6-CBX7 / biotin-H3K27me3 peptide binding; stronger effect = lower value | normalised signal (fraction of DMSO) (concentration not given with the values) | hit rate 1.1% among 66,000 | AID 1224903, 2016; in the data active = normalised signal below about 0.5;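 note: 100 nL library stock added to about 20 µL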
Target sequence (O95931 whole entry, looked up): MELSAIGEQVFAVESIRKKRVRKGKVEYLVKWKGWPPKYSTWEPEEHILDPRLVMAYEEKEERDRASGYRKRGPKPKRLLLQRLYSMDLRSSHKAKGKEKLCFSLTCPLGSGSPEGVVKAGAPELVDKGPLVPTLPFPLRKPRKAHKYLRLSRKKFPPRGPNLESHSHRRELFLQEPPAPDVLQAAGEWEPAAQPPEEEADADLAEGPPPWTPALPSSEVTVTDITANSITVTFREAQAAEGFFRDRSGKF
CBX7 inh z-score = recorded beside CBX7 inh, whose call it bears; z-score; measured here: z-score of CBX7 signal; some inactives read as strong as hits; reference of the scale not given here;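 same signal on another scale; lower means less binding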
* = called active by the depositor; & = joins results of further samples.

SMILES	CBX7 inh	CBX7 inh z-score
CCOc1ccccc1-c1cc(C(=O)NCc2ccncc2)c2ccccc2n1	0.98	-0.51
O=C1C=C(c2ccccc2)C[C@H](c2cccs2)[C@H]1n1nnc2ccccc21	1	0.17
CC(Cc1c[nH]c2ccccc12)NC(=O)C(c1ccccc1)c1ccccc1 (configuration not stated)	0.81	-2.6
CCOc1ccc(C(=O)Nc2cccc(-c3nc4ccc(C)cc4o3)c2)cc1Cl	1.2	2.9
COc1ccc(CCNC(=O)C2CCN(S(=O)(=O)c3ccc(OC)c(OC)c3)CC2)cc1	1	1.1
OC(COc1c(F)cc(Br)cc1F)CN1CCCCC1 (configuration not stated)	1	0.17
CCCC1CCc2nc3ccccc3c(C(=O)O)c2C1 (configuration not stated)	0.99	-0.12
CCCN(CCC)C(=O)CSc1nc2nc(C)c(Cc3ccccc3C)c(C)n2n1	0.93	-0.66
O=C(Cn1nc(Cc2cccnc2)c2ccccc2c1=O)NCC1CCCO1 (configuration not stated)	1.1	0.82
COc1cc(Cl)ccc1Nc1ncc(C(=O)N2CCN(c3ccccn3)CC2)c2ccccc12	1.1	0.86
Cc1ccc2[nH]cc(S(=O)(=O)c3ccc(F)cc3)c(=O)c2c1	1.2	2.2
COc1cc2c(cc1OC)C(c1ccc(F)cc1)NCC2 (configuration not stated)	0.81	-0.26
Cc1ccc(NC(=O)CSc2nccn2-c2cccc(Cl)c2)cc1	0.82	-3.2
NC(=O)C1CCN(C(=O)c2ccccc2NC(=O)c2ccccc2Br)CC1	1	1.1
O=C(NCCN1CCCC1)c1ccc2c(c1)N(Cc1ccccc1F)C(=O)c1ccccc1S2(=O)=O	1	0.5
CCOC(=O)C1CCCN(C(=O)c2c(-c3ccccc3Cl)noc2C)C1 (configuration not stated)	1	0.026
CCCc1nc(N2CCCC2)c(C#N)c2c1CCCC2	1.1	3.5
Cc1nc2cc(NC(=O)c3ccccc3Cl)ccc2n1-c1ccccc1	0.87	-0.15
CCC(=O)Nc1nc(C)c(-c2csc(Nc3cc(OC)ccc3OC)n2)s1	0.5*	-7.3*
CCN1CCN(CCCNC(=O)Cc2cn(C)c3ccccc23)CC1	1	1.4
COCCNC(=O)c1cc(-c2cccnc2)nc2ccc(S(=O)(=O)N3CCC(C)CC3)cc12	1.1	2.7
O=C(Nc1cc(F)ccc1F)c1cnc2sccn2c1=O	0.87	-1.6
Cc1ccc2c(c1)NC(=O)C(CC(=O)NC(C)C13CC4CC(CC(C4)C1)C3)O2 (configuration not stated)	1	1.5
O=C(Nc1ccc(F)cc1)c1cccnc1Nc1cccc(F)c1	1	-0.094
Cc1nc2nc(SCC(=O)NC3CCCCC3)nn2c(C)c1Cc1ccccc1Cl	1.1	0.54
COc1ccc(-c2cn(-c3ccc(F)cc3)c(SCC(=O)Nc3ccc(F)cc3F)n2)cc1OC	0.51	-3.7
Cc1nc(NCCCN2CCOCC2)c2c(C)c(C)sc2n1	1.1	1.4
O=C(Cn1nc(-c2ccccc2)c2cc(Cl)ccc21)NCc1ccc2c(c1)OCO2	1	0.41
Cc1ccc(NC(=O)CSc2ncc(-c3ccccc3)[nH]2)cc1	0.91	-1.4
O=C(COc1ccccc1Br)Nc1ccc(S(=O)(=O)Nc2nccs2)cc1	0.93	-1.7
COc1ccc(CCNC(=O)c2nnc(Cc3ccc(Cl)cc3)o2)cc1OC	1	0.21
CCc1ccc(N(CC)C(=O)CCC(=O)Nc2ccc3nc(N4CCOCC4)cc(C)c3c2)cc1	0.75	-0.33
O=C(NCCCN1CCc2ccccc2C1)C1CCN(c2nnc(-n3cccc3)s2)CC1	1.7	6.9
Cc1cccc2nc(-c3cccnc3)c(Nc3ccc(C(C)C)cc3)n12	0.87	-3.5
COc1cc2c(C(=O)NCCCN3CCC(C)CC3)cn(CC(C)C)c(=O)c2cc1OC	1.1	0.98
CCN(C(=O)CCC(=O)Nc1ccc2nc(N3CCCCC3)cc(C)c2c1)c1cc(C)ccc1C	0.98	-0.67
O=C(NCc1ccccc1)c1ccc2c(c1)N(Cc1cccc(Cl)c1)C(=O)CS2	0.94	-1.3
CC1(C)Cc2nc(N)c(C(=O)O)cc2CO1	0.9	-1.4
CCOC(=O)c1ccccc1N1C(=O)C2C(C1=O)C1C=CC2C12CC2 (configuration not stated)	0.99	-0.13
CCC1CCCCN1C(=O)CSc1nnc(-c2ccc(Cl)cc2)o1 (configuration not stated)	0.95	-0.11
CC(NC(=O)c1ccc2c(c1)N(Cc1cccc(Cl)c1)C(=O)CS2)c1ccccc1 (configuration not stated)	0.99	-0.32
Cc1cc(N2CCOCC2)nc2ccc(NC(=O)CCC(=O)NCc3ccc4c(c3)OCO4)cc12	0.95	-2.3
CCC(C)NC(=O)c1cc(-c2ccc(OC)cc2)on1 (configuration not stated)	1.4	2.1
O=c1/c(=C/c2cccc(O)c2)sc2nc3ccccc3n12	1	1
CC1CCc2cc(F)ccc2N1C(=O)Nc1ccc(F)cc1 (configuration not stated)	1.1	3.1
O=C(NCc1ccc2c(c1)OCO2)c1cccc(NC2=NC3CS(=O)(=O)CC3S2)c1 (configuration not stated)	0.98	-0.72
CCC(C)N1C(=O)CCC1C(=O)N1CCN(c2ccc(F)cc2)CC1 (configuration not stated)	1.1	2.9
CCc1nc(-n2nc(-c3ccccc3)cc2-c2ccccc2)n[nH]1	1.4&0.97	2.6&-0.77
CC(C)c1ccc(-c2csc(NC(=O)CCOc3ccccc3)n2)cc1	0.99	-0.21
O=C(Nc1ccc(F)cc1F)C1=CCN(S(=O)(=O)c2ccc(F)cc2)CC1	1	0.51
CCCCCCCCNC(=O)c1ccc(CNS(=O)(=O)c2ccc(C)cc2)cc1	1.1	1.6
CCCC1=Nc2cc(C(=O)NCCCc3ccccc3)ccc2Sc2ccccc21	0.97	-1.7
CN(C)C(=O)N1CCC(C(=O)NCc2ccc(F)cc2)CC1	1.1	0.79
Cc1ccc(-c2nc(CS(=O)(=O)CC(=O)Nc3ccc(C)c(Cl)c3)c(C)o2)cc1	0.99	-0.024
Cc1ccc(S(=O)(=O)C2(C(=O)NCCc3ccc(S(N)(=O)=O)cc3)CC2)cc1	1.1	0.97
Nc1ccc2nc(-c3ccc(C(=O)O)cc3)[nH]c2c1	0.94	-1.1
Cc1nc2nc(C)c(CCC(=O)Nc3ccc4c(c3)OCO4)c(C)n2n1	1	0.011
Cc1ccc(C)c(CSc2nc3ccncc3n2CC(=O)Nc2ccc(F)c(Cl)c2)c1	1	1.3
CCN(CC)C(=O)C1CCN(C(=O)c2cnn(-c3ccccc3)c2-n2cccc2)CC1	1.1	2.9
Cc1ccccc1Nc1c(-c2cccc(Cl)c2)nc2c(C)cccn12	1	0.38

Additional records follow:
SMILES	CBX7 inh	CBX7 inh z-score
Cc1cc(NC(=O)c2cc(-c3cccc(Cl)c3)on2)no1	1	1.1
CCN(CC)c1ncnc2sc(C(=O)N3CCN(c4ccc(F)cc4)CC3)c(C)c12	0.95	-1.3
CCC(=O)N1c2ccc(S(=O)(=O)NC3CCCc4ccccc43)cc2CC1C (configuration not stated)	0.73	-1.1
O=C(Nc1cccc(O)c1)c1cc(S(=O)(=O)N2CCCCCC2)ccc1Cl	1	0.18
Cc1ccccc1NC(=O)NCCN1CCc2ccccc2C1	1.1	1.1
Cc1cc(OCc2nc(-c3ccc(NC(=O)c4ccncc4)cc3)no2)ccc1Cl	1	0.085
CCC(=O)N1CCc2cc(S(=O)(=O)NC(C(=O)Nc3cccc(C)c3C)C(C)C)ccc21 (configuration not stated)	1	0.15
CCCCC(NC(C)=O)c1nc2ccccc2n1CCC (configuration not stated)	1	0.63
CCOC(=O)c1c(C)n(C)c2ccc(OCC(O)CNc3ccc(OCC)cc3)cc12 (configuration not stated)	0.74	-12
CC(c1ccccc1)c1nnc(NC(=O)c2cccc(Cl)c2)s1 (configuration not stated)	1	0.36
COc1cccc(-c2nc(C(=O)NC(C)CCc3ccccc3)c(C)o2)c1 (configuration not stated)	1	0.15
Cc1nc2cc(-c3ccc(Cl)cc3)nn2c(C)c1CCC(=O)Nc1ccc2c(c1)OCO2	0.75	-4.9

Not a retest: an excerpt of the list.
SMILES	CBX7 inh	CBX7 inh z-score
Cc1ccccc1Nc1c(-c2cccc(Cl)c2)nc2c(C)cccn12	1	0.38
Cc1cc(NC(=O)c2cc(-c3cccc(Cl)c3)on2)no1	1	1.1
CCN(CC)c1ncnc2sc(C(=O)N3CCN(c4ccc(F)cc4)CC3)c(C)c12	0.95	-1.3
CCC(=O)N1c2ccc(S(=O)(=O)NC3CCCc4ccccc43)cc2CC1C (configuration not stated)	0.73	-1.1
O=C(Nc1cccc(O)c1)c1cc(S(=O)(=O)N2CCCCCC2)ccc1Cl	1	0.18
Cc1ccccc1NC(=O)NCCN1CCc2ccccc2C1	1.1	1.1
Cc1cc(OCc2nc(-c3ccc(NC(=O)c4ccncc4)cc3)no2)ccc1Cl	1	0.085
CCC(=O)N1CCc2cc(S(=O)(=O)NC(C(=O)Nc3cccc(C)c3C)C(C)C)ccc21 (configuration not stated)	1	0.15
CCCCC(NC(C)=O)c1nc2ccccc2n1CCC (configuration not stated)	1	0.63
CCOC(=O)c1c(C)n(C)c2ccc(OCC(O)CNc3ccc(OCC)cc3)cc12 (configuration not stated)	0.74	-12
CC(c1ccccc1)c1nnc(NC(=O)c2cccc(Cl)c2)s1 (configuration not stated)	1	0.36
COc1cccc(-c2nc(C(=O)NC(C)CCc3ccccc3)c(C)o2)c1 (configuration not stated)	1	0.15
Cc1nc2cc(-c3ccc(Cl)cc3)nn2c(C)c1CCC(=O)Nc1ccc2c(c1)OCO2	0.75	-4.9

(continued)
SMILES	CBX7 inh	CBX7 inh z-score
COc1ccccc1C(=O)Nc1ccc(-c2nc3cc(C)cc(C)c3o2)cc1	1.1	0.84
Cc1cc(C)nc(NC(=O)c2c(-c3c(Cl)cccc3Cl)noc2C)n1	0.97	-0.54
Cc1c(C(=O)Nc2ccc(F)c(Cl)c2)oc2ccc(S(=O)(=O)N(C)C3CCCCC3)cc12	0.97	-0.28
CC1=CC(c2ccccc2)=Nc2ccc(C)cc2N1	0.96	-0.9
Clc1ccc2nc(-c3cccs3)c(Nc3ccccc3)n2c1	1.1	1.4
Cc1ccc(NS(=O)(=O)c2ccc3c(c2)CCC(=O)N3)cc1C	1.1	1.7
Cc1ccc2[nH]c(C)c(CN3CCCCC3)c(=O)c2c1	1.1	1.2
CCCNC(=O)CSCc1nc(-c2cccc(OC)c2)oc1C	1.1	1
COc1cc(OC)cc(OCC(O)Cn2cnc3cc(C)c(C)cc32)c1 (configuration not stated)	0.52	-6.1
COc1ccccc1CNC(=O)c1cc(=O)[nH]c2ccc(S(=O)(=O)N3CCCCC3C)cc12 (configuration not stated)	0.99	-0.64
CCCCCNC(=O)c1ccc2c(c1)ncn2-c1ccc(C)c(Cl)c1	0.76	-4.2
COCCNC(=O)C1CC(=O)N(Cc2ccc(OC)cc2)C1 (configuration not stated)	1.1	0.14
Cc1cccc(OCC(=O)Nc2c(C(=O)c3ccc(F)cc3)oc3ccccc23)c1	1.1	0.27
COc1ccc(Cc2noc(-c3cc(-c4ccc(Cl)cc4)nc4ccccc34)n2)cc1OC	1	0.12
COc1ccc(C(=O)NCc2nnc(SC/C=C/c3ccccc3)o2)cc1	1	0.1
Cc1cccc(NC(=O)C(NS(=O)(=O)c2ccc3c(c2)CCC(=O)N3)c2ccccc2)c1 (configuration not stated)	1	1.5
CCc1ccc(Nc2cc(C(=O)NCCc3cccc(C)c3)c3ccccc3n2)cc1	1	0.018
CCc1ccc(NC(=O)C(NS(=O)(=O)c2ccc3c(c2)CCC(=O)N3)c2ccccc2)cc1 (configuration not stated)	0.97	-0.21
CCc1ccc(OCCOCCn2c(-c3ccc(Cl)cc3)nc3ccccc3c2=O)cc1	1.2	3
Cc1ccc(-c2csc3ncn(CC(=O)Nc4cccc(C(F)(F)F)c4)c(=O)c23)cc1	1.1	0.75
Cc1nnc(NC(=O)c2c(-c3ccccc3)noc2C)s1	1.1	2.3
O=C(Nc1nc(-c2ccccc2)c(C(=O)c2ccccc2)s1)c1ccc(C(=O)c2ccccc2)cc1	0.92	-1.3
O=C(CSc1nnc(CNC(=O)c2cccs2)o1)Nc1ccc2c(c1)OCO2	1.1	2
Cc1cc2c(cc1C)NC(CC(=O)Nc1cccc(C)c1C)C(=O)N2 (configuration not stated)	0.98	-0.58
C=CCc1ccc(Oc2ncnc3sc(-c4ccccc4)cc23)c(OC)c1	1.1	0.14
CCCCOC(=O)c1cccc(NC(=O)c2c(-c3ccccc3Cl)noc2C)c1	0.88	-0.28
Cc1onc(-c2c(Cl)cccc2Cl)c1C(=O)Nc1cccc(C(F)(F)F)c1	1.1	1.4
O=C(NCCC1=CCCCC1)c1ccc2c(c1)N(Cc1ccc(F)cc1Cl)C(=O)CS2	1.1	2.2
O=C(c1cc(-c2ccccc2O)on1)N1CCOCC1	1	0.51
Cc1cc(N2CCC(C)CC2)nc2ccc(NC(=O)CCC(=O)N3CCC4(CC3)OCCO4)cc12	0.99	-0.24
O=C(CSc1nnnn1-c1ccc2c(c1)OCO2)Nc1ccccc1Cl	1	0.11
Cc1ccc(Nc2c(-c3cccs3)nc3nc(C)cc(C)n23)cc1	1.1	1.3
CCc1nc2c(cnn2-c2ccc(Cl)cc2)c(=O)n1-c1ccc(C)c(C)c1	0.78	-2.8
Cc1nc2ccccn2c1-c1csc(Nc2ccc(C(=O)O)cc2)n1	0.97	-1
COc1ccc(S(=O)(=O)N(CC(=O)NCc2cccnc2)c2ccc(C)cc2)cc1	0.98	-0.55
COc1ccc(NC(=O)c2csc3c2CCCC3)c(OC)c1	1	1.2
COc1cccc(CN2CCN(Cc3cc(OC)ccc3OC)CC2)c1	0.97	-0.81
CC1(C)Cc2ccccc2-c2nnc(-c3cccnc3)n21	0.99	-0.32
O=S(=O)(c1ccccc1)c1nc(-c2ccc(F)cc2)oc1N1CCOCC1	0.9	-0.13

2 compounds drawn at random from those above, as already listed:
SMILES	CBX7 inh	CBX7 inh z-score
O=C(c1cc(-c2ccccc2O)on1)N1CCOCC1	1	0.51
CC1(C)Cc2ccccc2-c2nnc(-c3cccnc3)n21	0.99	-0.32

The list is partial. The share of hits here may be higher or lower than overall.
